miR-21 reporter = miR-21 reporter, rising signal; AID 2288; 340,000 tested, under 10 active; HeLa miR-21 FLuc reporter, luciferase, 48 h; Potency, µM (top dose mostly 38.3 µM), inactives show at the top dose reporter change, positive = more light; active = well fitted rising curve with a large enough effect; inconclusive = small, poorly fitted or top-dose-only effect; inactive = no such curve, though single readings can be large or run the other way;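 also: % of control where 0% means no effect; miR-21 action dims this reporter so a rising signal means less miR-21 action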
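HeLa miR-21-FLuc reporter line, endogenous miR-21; 2000 cells/well in DMEM/10% FBS; compound titration up to ~40uM final, 48 h, 37 degree Celsius; luciferase detection reagent, 15 min lysis, CCD luminescence.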
* = called active by the depositor; ? = inconclusive. Only part of the results is shown, so the mix of outcomes need not match the whole.

miR-21 reporter | Compound
-10% | Clc1ccccc1Cn1cccc1C1=NC(Cc2ccccc2)CO1 (centres undefined)
14% | CC(CNC(=O)C1CCN(C(=O)c2cc3sccc3n2C)CC1)c1ccccc1 (centres undefined)
5% | O=C(C1CCCN(S(=O)(=O)c2cccs2)C1)N1CCN(c2ccccc2F)CC1 (centres undefined)
? | O=C1C2=C(Nc3ccccc3SC2c2ccc(Cl)c(Cl)c2)c2ccccc21 (centres undefined)
-1% | CCn1cc(C(=O)NCc2ccccc2)c(=O)c2cc(S(=O)(=O)N3CCOCC3)ccc21
? | COc1ccc(Nc2cc(C(=O)NCCCN3CCN(c4ccc(OC)cc4)CC3)c3ccccc3n2)cc1
11% | COc1ccc(OC)c(CCNC(=O)CCc2cn(Cc3cc(C)ccc3C)c3ccccc23)c1
12% | Cc1cccc(C(=O)Nc2ccc(C(=O)OCc3cc(=O)n4c(C)csc4n3)cc2)c1
16% | CC(C(=O)Nc1cccc(C#N)c1)n1nc(-c2ccccc2)c2c(c1=O)CCCC2 (centres undefined)
8% | O=C(CCc1nc2cccnc2n1Cc1cccs1)Nc1cccc(Cl)c1
4% | COc1ccc(C2CC(=O)Nc3c2c(C)nn3-c2nncc(-c3ccc(C)cc3)n2)c(OC)c1OC (centres undefined)
0% | Cc1cc(C)cc(NC(=O)c2cc(S(=O)(=O)N3CCCC3)ccc2F)c1
-6% | CC(C)c1ccc(OC(=O)c2cc(-c3ccccc3)on2)cc1
0% | CN(Cc1ccccc1)c1ccc(-c2nc(-c3ccncc3)no2)cc1[N+](=O)[O-]
1% | COc1ccc(NC(=O)CC2C(=O)N(c3ccc(C)cc3)C(=O)N2C2CCCCC2)cc1 (centres undefined)
0% | COc1ccc(-n2c(=O)c3c4c(sc3n(C)c2=O)CN(C(C)=O)CC4)cc1
-2% | CCc1nn2c(=O)cc(COC(=O)c3ccc(NC(=O)COc4ccccc4C)cc3)nc2s1
20% | Cc1ccc(CSC2=Nc3ccccc3C3=NC(CC(=O)NCc4cccs4)C(=O)N23)c(C)c1 (centres undefined)
-10% | O=C(Nc1ccc2nc(SCC(=O)N3CCc4ccccc43)sc2c1)c1ccc(F)cc1
1% | Cc1csc2nc(COC(=O)c3ccccc3NC(=O)c3cccc(Br)c3)cc(=O)n12
-35% | COc1ccc2c(c1)CCc1c(C(=O)Nc3ccccc3C(F)(F)F)noc1-2
-37% | Cc1ccc(CN(C(=O)c2ccc(C(C)(C)C)cc2)c2ccccn2)o1
-2% | Cc1ccc(C)c(N2CCN(CCCNC(=O)Nc3cc(Cl)ccc3C)CC2)c1
0% | Cc1cccc(OC(C)C(=O)N2CCC(c3nc4ccccc4o3)CC2)c1C (centres undefined)
11% | CCOC(=O)c1cc(-c2ccccc2)n(-c2cccc(C(=O)Nc3cccc(C)c3)c2)c1C
? | CCN(CC)C(=O)c1sc2c(c1C)c(=O)n(Cc1ccccc1)c(=O)n2Cc1ccc(Cl)cc1
-1% | COc1ccc(NC(=O)c2oc3ccccc3c2NC(=O)C2CCCCC2)c(OC)c1
-1% | CCOc1ccc(NS(=O)(=O)c2c(C)nc3sc(C)c(C)n3c2=O)cc1
3% | COc1ccc(C(=O)Nc2nnc(S(=O)(=O)N3CCCc4ccccc43)s2)cc1
-5% | Cc1ccc(S(=O)(=O)c2nc(-c3cccs3)oc2N2CCC(C)CC2)cc1
4% | CCOC(=O)CSC1=Nc2ccccc2C2=NC(CCC(=O)NCc3ccc(OC)cc3)C(=O)N12 (centres undefined)
-7% | CCOc1cccc2cc(-c3nc4sc5c(c4c(=O)[nH]3)CCC(C)C5)c(=O)oc12 (centres undefined)
14% | CCOc1ccc(CC(=O)NCCc2sc(-c3cccc(F)c3)nc2C)cc1
1% | Fc1ccc(-c2nn(-c3ccc(Cl)cc3)c3c2cnc2ccc(F)cc23)cc1
23% | CCc1ccc(-n2nc(C)c3c(C)cc(=O)n(CC(=O)Nc4cc(C)ccc4C)c32)cc1
-5% | CC1CCC(N2CC(=O)N(C3CCCCC3)C(c3ccc(F)cc3)C2=O)CC1 (centres undefined)
22% | O=C(Nc1c2c(nn1-c1ccc(Cl)cc1)CS(=O)(=O)C2)c1cccc(Cl)c1
? | COc1ccc(-c2nc(S(=O)(=O)c3ccc(Cl)cc3)c(NCc3ccccc3)o2)cc1
2% | COc1cccc(NC(=O)c2c(C)oc3nc(C)nc(N4CCCC4)c23)c1
1% | COC(=O)CN1C(=O)C(O)(CC(=O)c2ccc(F)cc2)c2ccccc21 (centres undefined)

Quoted from the listing (14 entries):
miR-21 reporter | Compound
-35% | COc1ccc2c(c1)CCc1c(C(=O)Nc3ccccc3C(F)(F)F)noc1-2
-37% | Cc1ccc(CN(C(=O)c2ccc(C(C)(C)C)cc2)c2ccccn2)o1
-2% | Cc1ccc(C)c(N2CCN(CCCNC(=O)Nc3cc(Cl)ccc3C)CC2)c1
0% | Cc1cccc(OC(C)C(=O)N2CCC(c3nc4ccccc4o3)CC2)c1C (centres undefined)
11% | CCOC(=O)c1cc(-c2ccccc2)n(-c2cccc(C(=O)Nc3cccc(C)c3)c2)c1C
? | CCN(CC)C(=O)c1sc2c(c1C)c(=O)n(Cc1ccccc1)c(=O)n2Cc1ccc(Cl)cc1
-1% | COc1ccc(NC(=O)c2oc3ccccc3c2NC(=O)C2CCCCC2)c(OC)c1
-1% | CCOc1ccc(NS(=O)(=O)c2c(C)nc3sc(C)c(C)n3c2=O)cc1
3% | COc1ccc(C(=O)Nc2nnc(S(=O)(=O)N3CCCc4ccccc43)s2)cc1
-5% | Cc1ccc(S(=O)(=O)c2nc(-c3cccs3)oc2N2CCC(C)CC2)cc1
4% | CCOC(=O)CSC1=Nc2ccccc2C2=NC(CCC(=O)NCc3ccc(OC)cc3)C(=O)N12 (centres undefined)
-7% | CCOc1cccc2cc(-c3nc4sc5c(c4c(=O)[nH]3)CCC(C)C5)c(=O)oc12 (centres undefined)
14% | CCOc1ccc(CC(=O)NCCc2sc(-c3cccc(F)c3)nc2C)cc1
1% | Fc1ccc(-c2nn(-c3ccc(Cl)cc3)c3c2cnc2ccc(F)cc23)cc1

Following part:
miR-21 reporter | Compound
19% | COc1cccc(-c2ccc3c(N)c(C(=O)c4ccc(Cl)cc4)sc3n2)c1
0% | CCc1ccccc1NC(=S)Nn1cnnc1
-1% | CCCOc1ccc(NC(=O)CC2C(=O)N(c3ccc(C)cc3)C(=O)N2Cc2cccc(OC)c2)cc1 (centres undefined)
? | Fc1ccc(Nc2nc3nonc3nc2Nc2cccc(C(F)(F)F)c2)cc1
4% | CN(C(=O)c1cc2nc(-c3ccco3)cc(C(F)(F)F)n2n1)c1ccc(OC(F)(F)Cl)cc1
-2% | O=C(Cn1cc(S(=O)(=O)Cc2ccc(F)cc2)c2ccccc21)NCc1ccccc1
9% | CC1CCN(C(=O)c2ccc3c(c2)N(Cc2ccccc2F)C(=O)c2ccccc2S3(=O)=O)CC1
-1% | CC(CNC(=O)c1ccc2nc(CCc3ccccc3)oc2c1)c1ccccc1 (centres undefined)
-2% | CCOC(=O)CC1c2cc(OCC)c(OCC)cc2CCN1C(=O)Nc1cccc(Cl)c1 (centres undefined)
1% | CCOC(=O)c1ccc(NC(=O)c2c(C)nn(-c3ccc(F)cc3)c2-n2cccc2)cc1
-3% | COc1cc(NC(=O)c2nn(-c3ccc(C)cc3)c(=O)c3c2c2ccccc2n3C)cc(OC)c1OC
-9% | Cc1ccc(COc2ccc(-c3cc(C(F)(F)F)n4nc(C)cc4n3)cc2)cc1
-1% | CCc1ccccc1NC(=O)CSc1ncc2c(n1)-c1ccccc1N(C)S2(=O)=O
14% | Cc1ccc2c(c1)C(c1ccccc1)N(C(=O)Cc1ccc(F)cc1)CC(=O)N2 (centres undefined)
8% | CCc1ccc(NC(=O)N2CCN(Cc3nc4ccc(C)cc4o3)CC2)cc1
0% | COc1cccc(NC(=O)CCc2nc3c(C)nn(-c4ccc(C)cc4)c3n(C)c2=O)c1
4% | COc1cc(Cl)c(C)cc1NC(=O)CCc1c(C)nc2c3cccnc3nn2c1C
-1% | CCN(CCCNC(=O)Cn1ncc2c3ccccc3n(C)c2c1=O)Cc1ccccc1
-1% | CCCCc1nn2c(=O)cc(COC(=O)c3ccc(NC(=O)c4ccccc4Cl)cc3)nc2s1
2% | Cc1ccc(NC(=S)Nn2cnnc2)c(C)c1
-2% | NC(=O)C1CCN(C(=O)c2ccc3c(c2)N(Cc2cccc(Cl)c2)C(=O)c2ccccc2S3(=O)=O)CC1
? | COc1ccc(C2=NC3(CCCCCC3)N(CC(=O)Nc3cccc(Cl)c3)C2=O)cc1
0% | CC1=C(C(=O)Nc2ccccc2C)C(c2ccco2)n2ncnc2N1 (centres undefined)
-7% | CC(C)OCCCNC(=O)c1cn(C)c2ccc(S(=O)(=O)N3CCCCCC3)cc2c1=O
-35% | COCC(=O)Nc1c(C(=O)Nc2ccc(C)cc2)oc2ccccc12
9% | CC(C)c1ccc(NC(=O)C2CCN(C(=O)c3ccc(F)cc3)CC2)cc1
10% | CCc1cccc(C)c1Nc1c(-c2ccc(N(C)C)cc2)nc2ncccn12
7% | O=C(NCC(c1ccc2c(c1)OCO2)N1CCN(c2ccccc2F)CC1)c1ccccc1F (centres undefined)
-10% | CCc1ccc(C(=O)c2cn(CC(=O)Nc3ccc4c(c3)OCO4)c3ccc(Cl)cc3c2=O)cc1
-3% | CCC(CC)C(=O)NC1CC(=O)N(c2ccc3c(c2)OCCO3)C1 (centres undefined)
-4% | O=S(=O)(c1cccc(Cl)c1)c1nnn2c1nc(NC1CCCCCC1)c1sccc12
-2% | Cc1cc(OCC(=O)Nc2ccc(C(=O)OC3CCCCC3)cc2)cc(C)c1Cl
-1% | Cc1ccccc1CN1c2ccccc2-c2nc(SCC(=O)NCCc3ccccc3)ncc2S1(=O)=O
? | COc1cc2c(=O)c(C(=O)c3ccc(C)c(C)c3)cn(Cc3ccccc3)c2cc1OC
4% | CCOC(=O)c1cccc(NC(=O)C(C)n2c(C)c3cnn(-c4ccccc4)c(=O)c3c2C)c1 (centres undefined)
-17% | Cc1ccc(NC(=O)C(NS(=O)(=O)c2ccc3c(c2)CCC(=O)N3)c2ccccc2)cc1C (centres undefined)
5% | COc1cccc(NC(=O)CSc2nc(C)c(Cc3ccccc3)c(=O)[nH]2)c1
-10% | CCOc1ccccc1-c1nnc(SCc2ccc(Cl)cc2)o1
25% | CCC(C)NC(=O)c1ccc2c(c1)N=C(C)c1cc(C)ccc1S2 (centres undefined)
-2% | CCc1ccc(-n2c(=O)c3c4c(sc3n(CC(=O)N3CCCCC3CC)c2=O)CCC4)cc1 (centres undefined)

Some values from above.
miR-21 reporter, CC1=C(C(=O)Nc2ccccc2C)C(c2ccco2)n2ncnc2N1 (centres undefined) stands at 0%
miR-21 reporter, CCc1cccc(C)c1Nc1c(-c2ccc(N(C)C)cc2)nc2ncccn12 stands at 10%

Other records follow:
miR-21 reporter | Compound
26% | CCN1C(=O)c2ccccc2Sc2ccc(NC(C)=O)cc21
-17% | CCc1ccc(NC(=O)CSC2=Nc3ccccc3C3=NC(CCC(=O)NCc4ccccc4OC)C(=O)N23)cc1 (centres undefined)
? | CC(C)c1ccc(C2Sc3ccccc3NC3=C2C(=O)c2ccccc23)cc1 (centres undefined)
-57% | Cc1ccc(NC(=O)N2CCN3CCCCC3C2)cc1F (centres undefined)
-7% | O=C(Nc1nnc(C2=COCCO2)o1)c1ccc(Br)cc1
4% | Cn1nc(C(=O)N2CCN(c3ccc(Cl)cc3)CC2)c2c1-c1ccccc1SC2
2% | CCOc1ccc(-c2nnc(SCC(=O)NCCc3ccccc3)nc2-c2ccc(OCC)c(OC)c2)cc1OC
-12% | COc1ccccc1N1CCN(C(=O)c2cnn(-c3ccc(F)cc3F)c2C2CCNCC2)CC1
0% | CCOC(=O)c1c(NC(=O)c2cc(=O)c3c(C)cc(C)cc3o2)sc(C(C)=O)c1C
-9% | COc1ccc(C(=O)c2cn(CC(=O)Nc3ccc4c(c3)OCCO4)c3ccc(OC)cc3c2=O)cc1
15% | COc1ccc(CNc2nc(-c3ccc(OC)cc3)cc(C(F)(F)F)n2)cc1
-23% | Fc1cccc(NCc2cccn2-c2nnc(N3CCOCC3)s2)c1
-1% | CCCn1nc(NC(=O)c2cccc(Cl)c2)c2cc3cccc(C)c3nc21
-5% | O=C(Nc1cccc(C(F)(F)F)c1)c1cc(-c2ccc(Cl)s2)nc2ccccc12
0% | Cc1ccc(CN2C(=O)c3ccccc3Sc3ccc(C(=O)NC4CCCC4)cc32)cc1
-9% | Cc1ccccc1C(=O)Nc1ccc(OCc2cc(=O)n3ccccc3n2)cc1
-26% | CCOc1cccc(-c2nc3ccccc3c(=O)o2)c1
0% | COc1ccccc1NC(=O)c1c(NC(=O)c2ccccc2F)sc2c1CCC2
? | CCCOc1ccccc1-c1nc(SCC(=O)c2ccccc2)n[nH]1
? | CCOc1ccc(S(=O)(=O)N(CC(=O)Nc2cccnc2)c2ccccc2)cc1
1% | CSc1ncc(C(=O)N2CCN(c3cccc(Cl)c3)CC2)c(C)n1
-1% | CCOC(=O)c1cccc(NC(=O)CCc2nc3cccnc3n2-c2ccccc2)c1
4% | CCOC(=O)N1CCc2c(sc3c2c(=O)n(Cc2ccccc2)c(=O)n3Cc2cccc(Cl)c2)C1
-1% | O=C(O)c1ccc(NC(=O)c2cc(S(=O)(=O)N3CCCCC3)c(Cl)cc2Cl)cc1
0% | Cc1cc(C)cc(NC(=O)Cn2cc(C(=O)c3ccncc3)c(=O)c3cc(C)c(C)cc32)c1
5% | COc1cccc(Nc2nc(-c3ccccc3)c3cc(C)ccc3n2)c1
-51% | COc1ccc(CNc2nc(-c3ccco3)nn2C(=O)CC(C)C)cc1
-8% | O=C(CCC1N=C2c3ccccc3N=C(SCC(=O)Nc3ccccc3F)N2C1=O)NCc1cccs1 (centres undefined)
